PINK1 expr mod = A Quantitative High throughput Screen to Identify Chemical Modulators of PINK1 Expression; PINK1 immunofluorescence, high-content cytometry, 24 h; 410,000 tested, 0.2% active; AID 624263, 2012; Potency, µM (doses to about 76.6 µM), for inactives: at the top dose activation (PINK1 increase), hits mostly activators; active = well fitted activation curve with a large enough effect; inconclusive = small, poorly fitted or top-dose-only effect; inactive = flat fitted curve, though single readings scatter; cell line not stated here;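 also: potency is read from the fitted curve at half-maximal effect; % of control where 0% means no effect; nearly all actives have a fitted effect of over 65% in size; a mitochondrial uncoupler was the plate control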
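Stable cell line, 250 cells/well, 12 h attachment; compounds pinned at 5 concentrations, 24 h; CCCP control. Fixed with nuclear dye, primary antibodies 12 h at 10 degrees C, secondary plus cell stain; laser-scanning cytometer read.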
TRPML1 ag = qHTS for Agonists of the Human Mucolipin Transient Receptor Potential 1 (TRPML1); 410,000 tested, 0.12% active; Mucolipin-1 (Homo sapiens), Q9GZU1; TRPML1-expressing cells, Ca2+ dye fluorescence, FDSS; host cell line not named in the record; reference of the full effect not given here; AID 624414, 2012; activation, % (concentration not given with the values); in the data active = activation above about 50%; inconclusive = about 30% to 50%; inactive = below about 30%; also: 0% is about no effect; the text of the record puts the active cut at 80%
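In this qHTS format, compounds were pin-transferred onto Ca8-dye-loaded TRPML1-DL cells induced with Tet overnight, and intracellular Ca2+ fluorescence was recorded kinetically for 110 s after a 10 s baseline. A subsequent 4uM final 54-4 (EC80) addition followed by a second 110 s read served as the antagonist phase.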
TRPML1 inh = qHTS for Inhibitors of the Human Mucolipin Transient Receptor Potential 1 (TRPML1); Mucolipin-1 (Homo sapiens), Q9GZU1; TRPML1-inducible cells, Ca2+ dye fluorescence, FDSS; hits give low values; inhibition of EC80 agonist-evoked calcium signal; activity change, negative = inhibition, % (test concentration not listed); 390,000 tested, 0.02% active; AID 624415, 2012; in the data active means activity change below about -50%; inconclusive means about -30% to -50%; inactive means above about -30%;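 also: stimulus is agonist 54-4 at its EC80 concentration; % is scaled to controls: 0 for no effect and ±100 for the full control effect; compound concentration not given in the record; the text of the record puts the active cut at -80%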
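Tet-induced TRPML1-DL cells loaded with Ca8 no-wash calcium dye were read kinetically on FDSS. Compound addition was followed by EC80 agonist 54-4 (4 uM final); inhibition was read over 110 s.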
Menin-MLL FL inh = qHTS Assay for Inhibitors Targeting the Menin-MLL Interaction in MLL Related Leukemias: Competition With Fluorescein Labeled MLL-derived Peptide; AID 1766, 2009; 290,000 tested, under 10 active; Fluorescence polarization, fluorescein-MLL peptide displacement from menin; FP activity change, % at 61.4 µM; inconclusive = falling polarisation curve, or a change in total fluorescence; inactive = total fluorescence flat and polarisation flat or rising; no compound was filed as active; the % refers to the polarisation; negative = inhibition;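 also: % of control where 0% means no effect; inhibitors lower the polarisation; unlabelled MLL peptide was the positive control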
Sfp inh = qHTS Assay for Inhibitors of Bacillus subtilis Sfp phosphopantetheinyl transferase (PPTase) | 4'-phosphopantetheinyl transferase ffp (Bacillus subtilis), Q9F4F7 | Biochemical Sfp PPTase activity, qHTS | Potency, µM, inactives show max response, negative = inhibition, usual class: inhibitors | 310,000 tested, 3.5% active | AID 1490, 2009; active = well fitted inhibition curve with a large enough effect; inconclusive = small, poorly fitted or top-dose-only effect, or another doubt; inactive = no such curve, though single readings can be large or run the other way;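 also: the enzyme is Sfp with the accession as filed and its product quenches rhodamine fluorescence; potency is read from the fitted curve at half-maximal effect; 0% = enzyme reaction without inhibitor and -100% = no enzyme wells; top concentration of the series not given in the record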
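Fluorescence-quenching assay: 15 nM Sfp-PPTase preincubated 15 min at room temperature with compound, then 5 uM rhodamine-CoA and 12.5 uM BHQ-2-labelled YbbR peptide added. Fluorescence (ex 525/em 598 nm) read at start and after 30 min; difference gives rate.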
TRPV1 PAM = HTS Assay for Compounds that Act as Potentiators of the Vanilloid Receptor 1 | AID 540277, 2011 | 320,000 tested, 0.02% active | potentiation, % at 8.33 µM | TRPV1-expressing cells, Fluo-8 calcium influx, capsaicin EC20 potentiation; host cell line not named in the record; control for the full effect not named in the record; active means potentiation above 80%; inconclusive means 30% to 80%; inactive means below 30%; also: 0% is about no effect
Target sequence (Q8NER1 whole entry, looked up): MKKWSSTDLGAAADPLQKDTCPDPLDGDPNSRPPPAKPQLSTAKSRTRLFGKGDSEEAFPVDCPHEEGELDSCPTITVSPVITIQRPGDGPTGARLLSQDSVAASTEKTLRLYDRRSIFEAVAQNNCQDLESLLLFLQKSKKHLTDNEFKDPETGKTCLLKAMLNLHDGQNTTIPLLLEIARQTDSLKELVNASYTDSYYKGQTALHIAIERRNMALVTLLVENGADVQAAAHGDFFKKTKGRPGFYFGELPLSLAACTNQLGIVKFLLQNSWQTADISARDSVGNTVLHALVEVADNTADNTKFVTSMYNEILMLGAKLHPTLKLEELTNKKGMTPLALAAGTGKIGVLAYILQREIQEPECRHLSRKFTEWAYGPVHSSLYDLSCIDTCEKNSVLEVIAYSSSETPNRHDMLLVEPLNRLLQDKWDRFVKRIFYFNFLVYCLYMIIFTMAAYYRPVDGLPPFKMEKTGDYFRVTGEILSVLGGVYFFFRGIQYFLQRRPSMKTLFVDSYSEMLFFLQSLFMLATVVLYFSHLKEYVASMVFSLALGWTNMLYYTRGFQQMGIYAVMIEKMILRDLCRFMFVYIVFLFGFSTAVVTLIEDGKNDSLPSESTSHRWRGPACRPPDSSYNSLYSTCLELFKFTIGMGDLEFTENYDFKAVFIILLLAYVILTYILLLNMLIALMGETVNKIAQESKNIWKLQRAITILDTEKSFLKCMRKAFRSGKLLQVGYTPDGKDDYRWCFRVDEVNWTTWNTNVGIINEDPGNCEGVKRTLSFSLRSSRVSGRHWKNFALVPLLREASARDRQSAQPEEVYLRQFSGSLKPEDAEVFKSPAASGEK
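Fluo-8 calcium influx in TRPV1-expressing cells, kinetic read (ex 480/em 520 nm). Compound added and read 3 min for agonist activity, followed by capsaicin at EC20 final and 2 min further read for enhancement.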
ClpP mod = qHTS Assay for Activators of ClpP; ATP-dependent Clp protease proteolytic subunit (Bacillus subtilis (strain 168)), P80244; purified B. subtilis ClpP, FRET peptide cleavage, 20 min; Potency, µM (top dose mostly 57.5 µM), for inactives: at the top dose activity change, negative = active; 340,000 tested, 1.9% active; AID 651965, 2013; active = well fitted falling curve with a large enough effect; inconclusive = small, poorly fitted or top-dose-only effect; inactive = no such curve, though single readings can be large or run the other way; also: potency is read from the fitted curve at half-maximal effect; the source files actives as falling curves though it sought activators and does not explain the sign; nearly all actives have a fitted effect of over 65% in size; many hits overshoot -100%
Target sequence (P80244 whole entry, looked up): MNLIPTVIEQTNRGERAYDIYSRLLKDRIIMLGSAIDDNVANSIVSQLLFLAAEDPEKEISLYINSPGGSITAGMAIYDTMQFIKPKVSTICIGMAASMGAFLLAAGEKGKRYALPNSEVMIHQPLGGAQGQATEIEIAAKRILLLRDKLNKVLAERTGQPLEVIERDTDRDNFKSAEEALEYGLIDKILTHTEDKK
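ClpP 10 microg/mL final, pH 8 Tris/KCl buffer with BSA, glycerol, Tween-20; compound pinned in; FRET-FV substrate; RT 20 min; Ex320/Em430; ΔFRET vs ADEP 5.8 microM, DMSO, no enzyme.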
Active calls of the source: *; ? = inconclusive; . = not tested or not shown; [ ] = remark or other dose. This is a random part of the collection; about 4.4% have a hit in one of these screens.

SMILES	PINK1 expr mod	TRPML1 ag	TRPML1 inh	Menin-MLL FL inh	Sfp inh	TRPV1 PAM	ClpP mod
CC(C)c1ccc(C2CC(=O)c3cnc(N4CCc5ccccc5C4)nc3C2)cc1 (stereo not given)	3.5%	2.0	13	-2.1	6%	2	-5.7%
CCN(CC)S(=O)(=O)c1ccc(C(=O)OCC(=O)N2CCOCC2)cc1	0.3%	-0.7	0	3.1	10%	0	.
CCN(CC)CCN1C(=O)C(=O)/C(=C(/O)c2ccc(S(=O)(=O)N3CCOCC3)cc2)C1c1ccc(C(C)(C)C)cc1 (stereo not given)	0.4%	-0.1	-1	-2.6	12%	16	.
COc1ccc(CC(=O)Nc2ccc(F)c(Cl)c2)cc1S(=O)(=O)N1CCOCC1	1.5%	0.5	14	.	.	0	-1.8%
CCOC(=O)[C@H]1[C@H]2COc3ccc(OC)cc3[C@@H]2N2C(=O)c3ccc(C)cc3NC(=O)[C@@]12C	0.2%	-1.1	-5	.	.	?	-1.7%
CC1(OC(=O)CCc2ccccc2)C(=O)C=C2C=C3CCCN3C=C2C1=O (stereo not given)	0.8%	-0.2	-8	-24[11.7 µM]	?	28	-0.2%
Cc1ccc(-c2nc(CS(=O)(=O)CC(=O)NCCCN3CCOCC3)c(C)o2)cc1	0.2%	-1.1	3	.	8%	-25	-4.2%
CCOC(=O)c1ccccc1NC1(c2ccc(OC)cc2)C(=O)c2ccccc2C1=O	1.8%	1.9	-2	.	.	.	2.3%
COc1ccccc1CCNC(=O)CSc1nc(-c2ccco2)cc(C(F)(F)F)n1	2.9%	-0.7	-8	4.4	-13%	.	-5.7%
CCN(CC)CCCNC(=O)C(=O)Nc1ccc2nc3n(c(=O)c2c1)CCCCC3	-0.8%	4.4	11	.	.	.	0.2%
COc1ccc(NC(=O)COC(=O)C2COc3ccccc3O2)cc1 (stereo not given)	2.0%	-0.7	-5	.	.	.	-3.5%
CN1CCN(C(=O)C(=O)Nc2c3c(nn2-c2ccc(F)cc2)CSC3)CC1	2.3%	0.4	-7	.	.	.	2.2%
CCC1(NC(C)=O)CC2CC1CC2NC(C)=O (stereo not given)	-1.9%[38.3 µM]	-0.5	4	6.7	10%	6	-0.9%
Cc1ccsc1C(=O)OCC(=O)NC1CCCC1	1.1%	0.5	14	.	.	-9	-0.2%
COc1ccc(CCNC(=O)c2ccc3c(c2)N(Cc2ccc(Cl)cc2)C(=O)c2ccccc2S3)cc1OC	-0.6%	3.4	-15	.	.	.	-8.7%
C[C@H](CO)N1C[C@H](C)[C@H](CN(C)C(=O)NC2CCCCC2)Oc2cc(-c3cccnc3)ccc2S1(=O)=O	2.9%	-0.2	8	.	.	.	-0.5%
Cc1nn(Cc2ccc(Br)cc2)c(C)c1NC(=O)c1nn(C)cc1Cl	-0.9%	-0.8	-5	-1.8	12%	-4	-1.8%
CCc1ccc(OCC(=O)NC(=S)Nc2ccc(F)cc2)c(Br)c1	.	26	-15	2.7	18%	23	-0.3%
c1ccc(-n2nnc3c(N4CCOCC4)ncnc32)cc1	-1.5%[38.3 µM]	0.1	0	1.8	-26%	-6	-2.0%
O=C(COC(=O)c1ccc[nH]c1=O)NC1CCCC1	0.9%	-0.3	-7	0.3	9%	-1	-5.5%
COC(=O)C1=C(C(C)=O)C(c2ccc(C)cc2)n2nnnc2N1 (stereo not given)	-2.1%	2.7	25	-0.3	14%	-11	-0.8%
Nc1ccccc1-c1nc2ccccc2[nH]c1=O	1.7%	0.3	-2	2.2	5%	15	-2.0%
N#C/C(=C\c1c(Oc2ccc(Br)cc2)nc2ccccn2c1=O)c1nc2ccccc2s1	4.3%	0.9	-11	.	.	.	?
OCC1CCCN(C(=S)Nc2ccc(Oc3ccccc3)cc2)C1 (stereo not given)	2.6%	1.7	-7	1.3	?	-3	.
CCCCC1CCC(C(=O)OCC(=O)Nc2ccc(S(N)(=O)=O)cc2)CC1 (stereo not given)	3.1%	0.3	10	8.8	15%	-8	-5.4%
SMILES	PINK1 expr mod	TRPML1 ag	TRPML1 inh	Menin-MLL FL inh	Sfp inh	TRPV1 PAM	ClpP mod
CCOCCCNC(=O)Cn1cnc2c(cnn2-c2ccc(OC)cc2)c1=O	-0.2%	-0.3	11	1.0	12%	-4	.
CN(C(=O)COc1cc(=O)n(C)c2ccccc12)c1cccc(Cl)c1	2.5%	1.1	-1	5.2	?	-11	-2.8%
CC1CCN(CCCNc2cc(NCCO)c([N+](=O)[O-])c3nonc23)CC1	2.3%	1.4	-2	-1.1	15%	0	.
CSc1nc(-c2cccs2)c(C#N)c(=O)[nH]1	-0.2%	2.2	10	7.5	0%	25	.
Cn1c(=O)[nH]c(=O)c2c1nc(N1CCOCC1)n2CCN1CCOCC1	-0.7%	-0.4	-4	-0.3	28%	14	-0.4%
CC(NC(=O)CNC(=S)N(Cc1cccs1)C1CCCC1)c1ccccc1 (stereo not given)	-0.2%	0.4	4	-4.1	12%	-15	.
O=C(c1ccc(OC2CCN(CCCc3ccccc3)CC2)cc1)N1CCCC1	-0.9%	0.4	6	.	.	.	-2.2%
COC(=O)[C@]1(C)N[C@H](CN(C)C(=O)c2ccc(F)cc2)[C@@H]2C(=O)N(C)C(=O)[C@@H]21	-1.3%	0.9	-3	.	.	.	-2.2%
CC(C)(CNC(=O)c1cccc(F)c1)CNC(=O)c1cccc(F)c1	-1.6%	0.3	6	.	.	.	0.0%
CCCCCCCN1CCC(=O)N([C@H](CO)CC(C)C)CC1	1.5%	0.0	-4	1.8	9%	-10	0.3%
COc1cc(OC)cc(-c2nnc(SCC(=O)NCc3cccs3)o2)c1	.	0.8	4	30	?	20	45%
NS(=O)(=O)c1ccc(NC(=S)N2CCN(Cc3ccc(Cl)c(Cl)c3)CC2)cc1	1.0%	0.0	-15	-0.8	21%	5	.
O=C(c1n[nH]c(=O)c2ccccc12)N1CCN(Cc2ccc3c(c2)OCO3)CC1	-0.2%	0.2	12	-6.4	?	-7	.
COC(=O)C1(C)NC(=O)c2ccccc2N1 (stereo not given)	0.5%	0.1	12	3.2	15%	0	4.6%
Cc1ccc2c(c1)N=C(c1ccccc1)CC(C(Cl)Cl)=N2	4.4%	1.1	11	0.7	?	-11	-0.5%
COCCn1c(C)cc(C(=O)COc2ccc(N(C)S(=O)(=O)c3ccc(C)cc3)cc2)c1C	-0.2%	0.7	3	.	.	4	2.6%
CCN1CCN(c2ccc(S(=O)(=O)N3CCCCC3)cc2NC(=O)c2ccc(F)cc2)CC1	3.8%	-0.2	1	-0.1	14%	-31	0.5%
CCOc1ccc(C=NNc2ccc(S(=O)(=O)Nc3ccccc3C(=O)O)cc2[N+](=O)[O-])cc1	4.2%	0.4	-7	.	.	.	.
COc1ccc(OC(C)C(=O)Nc2cccc([N+](=O)[O-])c2)cc1 (stereo not given)	3.0%	-0.3	-17	4.8	?	-9	20%
C/C(CC(=O)Nc1ccc(Cl)cc1Cl)=N\NC(=O)c1cnccn1	4.1%	0.0	-10	1.4	-3%	-1	.
Cc1cc(C)cc(NC(=O)CSc2nnc(-c3cc4occc4n3C)n2-c2ccccc2C)c1	3.2%	2.0	-9	.	.	.	-4.5%
O=C(Oc1ccc(C(=S)N2CCOCC2)cc1)c1ccc(F)cc1	0.9%	0.5	-1	-1.0	50µM*	-3	-0.2%
O=C1CCCN1c1cc(Cl)cc(Cl)c1	1.5%	-0.3	-3	2.7	22%	-2	.
CCCC(CCC)C(=O)Nc1cccc(-c2nc3cccnc3s2)c1C	2.2%	0.7	-16	.	.	.	-2.2%
CC1(C)CC(=O)c2cnc(NC(=O)CSc3nc4ccccc4o3)nc2C1	27%	1.6	-5	3.2	71µM*	4	-2.3%

In a second layout: four of the compounds above.
Every second line gives: PINK1 expr mod | TRPML1 ag | TRPML1 inh | Menin-MLL FL inh | Sfp inh | TRPV1 PAM | ClpP mod
- COC(=O)C1(C)NC(=O)c2ccccc2N1 (stereo not given)
 : 0.5% | 0.1 | 12 | 3.2 | 15% | 0 | 4.6%
- COc1ccc(OC(C)C(=O)Nc2cccc([N+](=O)[O-])c2)cc1 (stereo not given)
 : 3.0% | -0.3 | -17 | 4.8 | ? | -9 | 20%
- Cn1c(=O)[nH]c(=O)c2c1nc(N1CCOCC1)n2CCN1CCOCC1
 : -0.7% | -0.4 | -4 | -0.3 | 28% | 14 | -0.4%
- Cc1ccc2c(c1)N=C(c1ccccc1)CC(C(Cl)Cl)=N2
 : 4.4% | 1.1 | 11 | 0.7 | ? | -11 | -0.5%

Later entries.
SMILES	PINK1 expr mod	TRPML1 ag	TRPML1 inh	Menin-MLL FL inh	Sfp inh	TRPV1 PAM	ClpP mod
CC(C)c1ccc(N(CC(=O)NCc2ccco2)C(=O)CCC(=O)Nc2ccccn2)cc1	1.5%	0.0	-3	-0.3	12%	?	.
CC1CCc2sc(C(=O)NCC3CCCO3)cc2C1 (stereo not given)	2.3%	-0.7	2	.	.	2	.
O=C(COc1coc(CN2CCc3ccccc3C2)cc1=O)Nc1ccc([N+](=O)[O-])cc1	12%	0.4	-3	.	.	-2	-25%
CCCCn1c(SCN2C(=O)c3ccccc3C2=O)nc2cc(S(N)(=O)=O)ccc21	1.0%	0.5	-7	3.4	1%	-4	-2.5%
COc1ccc(NC(=O)CCc2nnc3ccc(NCc4ccc5c(c4)OCO5)nn23)cc1	2.8%	0.9	-2	1.3	-23%	14	-1.0%
CCN1C(=O)/C(=C/N2CCc3ccccc32)SC1=S	6.6%	1.0	21	?	27%	2	0.4%
Cc1cc(Cl)cc(C)c1OCCCCn1ccnc1	?	-0.1	16	6.3	13%	21	-0.1%
Cc1cc(C)cc(NC(=O)c2ccc(S(=O)(=O)NCc3cccnc3)cc2)c1	3.0%	0.9	26	.	-4%	-6	-1.3%
Cc1cccc(OCc2nnc(SCc3nc4ccccc4c(=O)[nH]3)o2)c1	-0.5%	-0.1	-3	0.0	-4%	-7	3.8%
